High-throughput results as filed in PubChem BioAssay.
Mtb H37Rv = Confirmatory growth inhibition assay against Mycobacterium tuberculosis H37Rv, potency (AID 1949); most inactive calls were filed without a number and no value below 0 was filed; inhibition, % at 10 µg/mL, or IC50 in µg/mL where a hit was titrated; hit rate 1.6% among 100,000;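 active = confirmed in a dose series; inconclusive = about 50% or more but not retested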;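 note: bacteria grown 7 days with compound before Alamar blue readout; 0% = untreated bacteria and 100% = reference antibiotic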
Starred values were filed as active, the others as inactive; i = inactive; ? = inconclusive. These rows are one share of the data (hit frequency here may not be typical).

smiles,Mtb H37Rv
CCc1ccccc1NC(=O)C1CCN(S(=O)(=O)c2ccc(Cl)cc2)CC1,i
COc1ccc(S(=O)(=O)N2CCCC2)cc1C(=O)O,i
COc1ccccc1-n1cc2c(=O)n(C)c(=O)n(C)c2c1,i
CC(C)c1ccc(CNC(=O)C(=O)Nc2nccs2)cc1,?
Fc1ccc(NC(=S)Nc2ccc3nccnc3c2)cc1,i
O=S(=O)(c1cc(Cl)c(Cl)cc1Cl)N1CCCC1,1%
CCOC(=O)c1c(NC(=O)CSc2n[nH]c(-c3ccco3)n2)sc2c1CCCC2,i
O=C(Cc1ccc(-c2ccccc2)cc1)NNC(=S)NCc1ccco1,i
COc1ccccc1C(=O)Nn1c(C)ccc1C,i
O=C(Cc1cccc2ccccc12)Nc1nnc(CCN2CCCCC2)s1,i
Cc1ccc(C)n1-c1ccc(C(=O)N2CCOCC2)cc1,i
CCOc1ccc(C(=O)CSc2nnc(SCc3ccc(Cl)cc3)s2)cc1,3%

The list goes on.
smiles,Mtb H37Rv
O=[N+]([O-])c1cccc(CN2CCC(N3CCN(c4ccccc4)CC3)CC2)c1,3%
Cc1nc(NC(=S)NC(=O)c2ccccc2)sc1C(=O)Nc1ccccc1,i
COc1ccc(N2CCN(C(=O)CC3CCCCC3)CC2)cc1,i
COc1ccc(C(C)C)cc1S(=O)(=O)N1CCCC1,1%
O=C(Cc1ccc(Cl)cc1)NCc1ccc2c(c1)OCO2,8%
Cc1ccc(C)n1NC(=O)c1ccccc1[N+](=O)[O-],1%
CC(C)(CO)NC(=O)c1ccc([N+](=O)[O-])cc1,i
O=C(Nc1cccnc1)c1nc2ncccn2n1,0%
C#CCSc1nnc(-c2ccc(C)cc2)o1,30%
Clc1ccc(OCc2ccccc2Cl)c(CNCc2ccccc2)c1,5.1µg/mL*
COCCSc1nnc(NC(=O)CSCc2ccccc2)s1,2%
CN1CC(=O)N(c2ccccc2)C1=S,i

New compounds follow.
smiles,Mtb H37Rv
Cc1ccccc1/C=C/C1=CC(C)(C)NC(=S)N1,i
Cc1ccc(CNC(=O)CN(Cc2ccc(Br)cc2)S(=O)(=O)c2ccccc2)cc1,i
CC(C)(O)C(=O)NNC(=S)Nc1cccc(C(F)(F)F)c1,i
COc1cc(C(=O)Nc2nc3ccc(S(=O)(=O)N4CCOCC4)cc3s2)cc(OC)c1OC,i
O=c1n(S(=O)(=O)c2ccc(F)cc2)c2ccccc2n1S(=O)(=O)c1ccc(F)cc1,i
COC(=O)c1cc(C)sc1NC(=S)Nc1cccc2ccccc12,i
COc1cccc(-c2nnc(NC(=O)Cc3cccs3)s2)c1,5%
Cc1ccccc1/C=N/n1c(-c2ccc(Cl)cc2)n[nH]c1=S,1%
COc1ccc(OC)c(N(CC(=O)Nc2ccc(OC)c(Cl)c2)S(=O)(=O)c2ccccc2)c1,i
CCn1c(SCC(=O)c2ccc(Br)cc2)nnc1C(C)NC(=O)c1ccc(Cl)c(Cl)c1 (stereo not given),i
Nc1cc(N)nc(SCC(=O)Nc2ccc(Br)cc2Cl)n1,i
Nc1cc(N)nc(SCC(=O)Nc2nc3c(s2)CCCC3)n1,i

(next part)
smiles,Mtb H37Rv
CC(=O)Nc1cccc(NC(=O)CSc2nsc(SCC(=O)Nc3cccc(NC(C)=O)c3)c2C#N)c1,i
O=c1[nH]c(SCc2ccc(Cl)cc2)nc2ccccc12,i
CS(=O)(=O)N(CC(=O)Nc1cccc([N+](=O)[O-])c1)c1ccccc1,3%
Cc1ccc(NC(=O)CSc2nnc(-c3ccc(Br)cc3)n2C)cc1C,i
C#CCn1c(-c2cccs2)nc2ccccc21,i
O=S(=O)(CCc1nnc(-c2ccc(F)cc2)o1)c1ccc(Cl)cc1,i
COC(=O)C(Oc1ccc2c(C)c(C)c(=O)oc2c1C)c1ccccc1 (stereo not given),i
CCOC(=O)N1CCN(C2CC(=O)N(c3ccc(C)cc3)C2=O)CC1 (stereo not given),i
O=C(Nc1ccccc1I)c1ccc(CSc2ccccc2)o1,4%
Cc1sc2nc(SCCOc3ccc(F)cc3)n(-c3ccccc3)c(=O)c2c1C,i
CC(C)(C)CC(C)(C)NC(=O)c1ccccc1,0%
S=C(NCC1CCCO1)Nc1ccc(Oc2ccccc2)cc1 (stereo not given),i

Sorted by length of the SMILES (low to high): 3 of the compounds above
smiles,Mtb H37Rv
CC(C)(C)CC(C)(C)NC(=O)c1ccccc1,0%
S=C(NCC1CCCO1)Nc1ccc(Oc2ccccc2)cc1 (stereo not given),i
CS(=O)(=O)N(CC(=O)Nc1cccc([N+](=O)[O-])c1)c1ccccc1,3%

The list goes on:
smiles,Mtb H37Rv
Cn1nnnc1SCC(=O)N1c2ccccc2Sc2ccc(Cl)cc21,0%
COc1ccccc1C1C(C(=O)OC(C)C)=C(C)Nc2nnnn21 (stereo not given),i
C=CCc1cc(OC)ccc1OCCCN1CCCCC1,i
CC(C)c1ccccc1NC(=O)c1ccccc1I,i
O=S(=O)(CC(CN1CCCC1)N1CCCC1)c1ccccc1 (stereo not given),i
C=CCc1cc(C)ccc1OCCOCCn1ccnc1,i
O=C1CC(Sc2nnnn2C2CCCCC2)C(=O)N1c1ccccc1 (stereo not given),i
Cc1cc(=O)[nH]c(SC(C)C(=O)Nc2cccc3ccccc23)n1 (stereo not given),i
COC(=O)N1c2ccccc2C=CC1C#N (stereo not given),3%
Cc1cc(C)cc(NC(=O)c2cccc(NC(=O)c3ccco3)c2)c1,i
Cc1ccc(NS(=O)(=O)c2ccc(Cl)c(C(=O)O)c2)cc1,i
Cc1cc(I)cc(C)c1NC(=O)CSc1nnc(CSCc2ccc(Cl)cc2)n1C,i

(cont.)
smiles,Mtb H37Rv
Oc1ccc(NCc2c(OCc3ccccc3)ccc3ccccc23)cc1,i
C=CCc1ccc(OCCOCCNCCN)c(OC)c1,i
COC(=O)c1sc(NC(=O)c2ccc(-c3ccccc3[N+](=O)[O-])o2)c(C#N)c1C,i
O=c1ccc2ccc(OCc3cc4c(cc3Cl)OCO4)cc2o1,i
CN(CC(=O)Nc1ccc(I)cc1)S(=O)(=O)c1cc(Cl)ccc1Cl,28%
CC(Nc1ncnc2sc3c(c12)CCCC3)c1ccccc1 (stereo not given),i
O=C(O)CCNS(=O)(=O)c1cccc(F)c1,i
Cc1cccc(C)c1NC(=O)COc1ccc2c(-c3ccccc3)cc(=O)oc2c1C,25%
CCOC(=O)C1CCN(S(=O)(=O)c2ccc(Cl)c3ccccc23)CC1,i
Cc1ccc(SCCNS(=O)(=O)c2cc(Cl)ccc2Cl)cc1,i
Cc1ccc(C)c(C(=O)Nc2ccc(F)cc2F)c1,i
CCc1c(C)sc(NC(=O)c2sc3ccccc3c2Cl)c1C(N)=O,i

Following part
smiles,Mtb H37Rv
O=C(NCCCn1ccnc1)Nc1cccc(Cl)c1,i
COc1ccc(NC(=O)Cn2cnc3sc(C)c(C)c3c2=O)c(OC)c1,i
Cc1c(-n2c(-c3ccc(Cl)cc3Cl)nc3ccccc3c2=O)c(=O)n(-c2ccccc2)n1C,i
Fc1ccc(NC(=S)Nc2ccn(C34CC5CC(CC(C5)C3)C4)n2)cc1Cl,i
COC(=O)c1sccc1NC(=O)c1ccccc1[N+](=O)[O-],i
CCCc1ccc(-c2nc(-c3cccnc3)no2)cc1,12%
CN(C)CCNCCOc1ccc(-c2ccccc2)cc1,3%
COc1ccc(CC(=O)NCc2nnc(SCC(=O)N3CCN(c4ccccc4)CC3)n2C)cc1,i
CCOc1cc(CO)cc(Br)c1OCc1cccc(C)c1,12%
COc1ccc2c(Cl)c(C(=O)Oc3ccccc3Cl)sc2c1,?
c1ccc(-c2csc3ncnc(N4CCCC4)c23)cc1,i
COc1cc2[nH]c(=S)n(CCCN3CCCC3=O)c(=O)c2cc1OC,i

(further entries)
smiles,Mtb H37Rv
CCOC(=O)c1c(NC(=O)c2ccc(OC)cc2OC)sc(C(=O)N(C)C)c1C,i
Cc1ccccc1NC(=O)CCC(=O)Nc1ccccc1C,i
CCCNC(=O)c1ccccc1NC(=O)c1ccccc1N(Cc1ccccc1)S(C)(=O)=O,i
CCOc1ccccc1NC(=O)COc1ccc(S(=O)(=O)NC2CCCCC2)cc1,i
Cc1ccc(C(=O)Nc2ccccc2C(C)(C)C)c(Cl)c1,49%
COc1ccc(NC(=O)c2ccccc2NC(=O)c2ccccc2I)cc1,i
COc1cc(CNCCCN2CCOCC2)ccc1OCc1ccccc1Cl,i
CC(C)(C)C1CCC(OC(=O)CCC(=O)O)CC1 (stereo not given),i
O=C(CN(c1ccccc1)S(=O)(=O)c1ccc(Cl)cc1)NCc1ccccn1,i
COc1cccc(C(=O)NC(=S)Nc2ccccc2C(N)=O)c1,i
CS(=O)(=O)N(CC(=O)NCc1ccccc1)c1cc(Cl)c(Cl)cc1Cl,i
O=S(=O)(Cc1ccccc1)Nc1ccc(S(=O)(=O)N2CCCCC2)cc1,7%

Next compounds follow:
smiles,Mtb H37Rv
CC(C)c1ccc(OC(=O)c2ccco2)cc1,5%
O=C(Nc1ccc(Cl)cc1)Nc1nc2ccc(Br)cc2s1,i
CCCCC(=O)Nc1ccc(N2CCN(C(=O)c3ccc(C)cc3)CC2)cc1,i
CCC1CCCCN1C(=O)Nc1ccccc1 (stereo not given),i
COC(=O)c1c(NC(=O)c2ccc(Cl)c(Cl)c2)sc(C)c1C,i
Cc1ccc(-c2nn(-c3ccccc3)cc2C(N)=O)cc1C,5%
Cc1cc(C)cc(C(=O)NC2CCCC2)c1,i
CCOc1cc(C(=O)Nc2nc3ccc(Cl)cc3s2)cc(OCC)c1OCC,i
CC(C(=O)Nc1ccc(Br)cc1C(=O)c1ccccc1)N1CCOCC1 (stereo not given),i
O=C(Cc1ccc(Br)cc1)N1CCN(c2ccccn2)CC1,i
CCCCC(=O)Nc1cccc(NC(=O)Cc2ccccc2)c1,6%
CCc1ccc(OC(C)c2nnc(SCC(=O)Nc3c(C)cccc3CC)n2C)cc1 (stereo not given),i

Continuation:
smiles,Mtb H37Rv
COc1ccc(N(CC(=O)O)S(=O)(=O)c2ccccc2)c(OC)c1,i
O=C(Nc1ccccc1N1CCOCC1)c1cc2ccccc2o1,i
COc1ccc(C(=O)N=C2NC(=O)C(C)S2)cc1 (stereo not given),i
Cc1nnc2sc(/C=C/c3ccccc3)nn12,i
COC(=O)c1c(NC(=O)COc2ccc(C)c(C)c2)sc2c1C(C(=O)OC)CC2 (stereo not given),5%
Cc1ccccc1C(=O)N1CCN(c2ccc(NC(=O)c3ccc([N+](=O)[O-])c(C)c3)cc2)CC1,i
COc1ccc(C)cc1NC(=O)c1cccc(OC)c1OC,44%
Cc1ccc(C)c(NC(=O)CSc2ncnc3sc4c(c23)CCC4)c1,i
Cc1c(C)n(C(=O)CN2CCN(Cc3ccc4c(c3)OCO4)CC2)c2ccccc12,i
C=CCN(CC=C)C(=O)c1ccncc1,i
Cc1c(Cl)cccc1N1CC(O)=C(c2nc3ccccc3s2)C1=N,3%
COc1ccc(NC(=O)C(C)Oc2ccc(Br)cc2)c(OC)c1 (stereo not given),i

Further records follow.
smiles,Mtb H37Rv
Cc1ccc(-c2cc(C(F)F)n3ncc(C(=O)OC(C)C)c3n2)cc1,i
O=C(Nc1ccc(S(=O)(=O)N2CCCCC2)cc1)c1ccc(F)cc1,i
COc1ccccc1OCc1nc(-c2ccc([N+](=O)[O-])cc2)no1,i
CC(C)c1ccc(C(=O)NCc2ccccn2)cc1,1%
O=C(Nc1ccc(Br)cn1)c1ccccc1SCc1ccccc1,i
CCOC(=O)C1=C(c2ccccc2)Nc2ncnn2C1c1cccs1 (stereo not given),i
CCOc1ccc(C(=O)Nc2ccc(N3CCN(C)CC3)cc2)cc1Br,?
COc1ccc(CCC(=O)Nc2cc(Cl)ccc2C)cc1,i
Cn1c(CCCOc2ccc(Cl)cc2Cl)nnc1SCC(=O)Nc1cccc(F)c1,i
O=C(c1ccccc1)N1CCC(CN=Cc2c(-c3ccccc3)[nH]n(-c3nc4ccccc4s3)c2=O)CC1,43%
COc1ccc(C)cc1NC(=O)CNS(=O)(=O)c1cc(Cl)ccc1Cl,i
CCCc1ccc(OCc2ccc(C(=O)Nc3ccccc3OC)cc2)cc1,i

(further entries)
smiles,Mtb H37Rv
Cc1c(C(=O)NC(=S)Nc2cccc(-c3nc4cc(C(C)C)ccc4o3)c2)cccc1[N+](=O)[O-],i
O=c1[nH]c2ccccc2n1CCN1CCOCC1,5%
CCC(=O)N1CCN(c2ccc(NC(=O)c3ccc([N+](=O)[O-])c(C)c3)cc2)CC1,4%
CC(=O)NCCc1ccc(S(=O)(=O)Nc2c(C)cc(Br)cc2C)cc1,i
CCOC(=O)c1ccc(NC(=O)CCC2COc3ccccc3O2)cc1 (stereo not given),?
O=C(c1ccccc1Cl)c1cc2c(cc1[N+](=O)[O-])OCCO2,i
O=C(Nc1ccc(F)cc1F)N1CCN(C(c2ccccc2)c2ccccc2)CC1,i
Cc1ccc(NCC(=O)c2ccccc2)cc1Cl,i
COc1ccc(NC(=O)CN2CCN(c3ccc(C)c(C)c3)CC2)cc1,i
CCC(C)NC(=O)Nc1ccc(F)c(Cl)c1 (stereo not given),i
C=CCn1c(CSCc2ccc(Cl)cc2Cl)n[nH]c1=S,45%
OC(CNC1CCCC1)COc1ccc(F)cc1 (stereo not given),i

Grouped by structure: the entries above with a tert-butyl group
smiles,Mtb H37Rv
CC(C)(C)CC(C)(C)NC(=O)c1ccccc1,0%
Cc1ccc(C(=O)Nc2ccccc2C(C)(C)C)c(Cl)c1,49%
CC(C)(C)C1CCC(OC(=O)CCC(=O)O)CC1 (stereo not given),i
